Mtb hypoxia inh = PubChem AID 1159583; M. tuberculosis hypoxia-regulated fluorescent reporter, fluorescence; fluorescence inhibition, % (test concentration not listed); hit rate 0.1% among 300,000;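 active = 35 to 45% if threefold the growth effect, above 45% if 1.5-fold the growth effect; inactive = the rest, general growth blockers included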;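 note: wells of about 50 µL received 100 nL stock; 0% = vehicle wells and 100% = reference inhibitor wells; whole bacteria with a GFP reporter of the hypoxia response; strong numbers were not always called active; many hits fall short of the cut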
Autofluor counter = flagged as autofluorescent in microsphere protease counterscreen | fluorescence intensity (concentration not given with the values) | compound autofluorescence counterscreen, microsphere flow cytometry; hits give high values | hit rate 3.1% among 360,000 | AID 624483;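 active = at least 3 SD above the mean of all compounds, about 16000 in these data; inconclusive = too few beads counted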;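 note: 100 nL of 1 mM stock went into each well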
PrP 5UTR inh = inhibition of PrP 5' UTR reporter expression; cell-based PrP 5' UTR mRNA reporter, plate reader; inhibition, % (concentration not given with the values); hit rate 0.35% among 340,000;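 active = every replicate at 50% or more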;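 note: 0 = median of the neutral control wells; tested in H4 reporter cells; numbers are from one replicate; inactives centre near -14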
Sa ugtP lethal = growth inhibition of ugtP-null S. aureus, primary screen, RN4220 ugtP deletion, OD600; 16 h; some inactives read as strong as hits; hit rate 0.54% among 330,000; growth inhibition, % (no concentration beside the values);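 active = z-score under -3 and OD600 up to 0.15 on both plates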;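 note: plate controls were untreated wells for no effect and antibiotic for full effect; wells of about 80 µL received 100 nL stock; the first replicate is given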
BJeLR lethal = MLPCN primary cell-based screen for lethality selective to Ras in HRASV12 cells; BJeLR (HRASV12) viability, CellTiter-Glo ATP luminescence, 48 h; reference of the scale not given here; inhibition, % (concentration not given with the values); hit rate 0.17% among 300,000;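 active = replicate mean above 50%; inconclusive = above 50% but judged a plate artefact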;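 note: 50 nL library stock added to about 25 µL; numbers are from one replicate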
RN4220 kill = growth inhibition of S. aureus RN4220, primary screen, OD600 | inhibition, % (test concentration not listed) | AID 1259311, 2017 | 16 h | hit rate 0.33% among 330,000;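 active = z-score of -3 or lower and OD600 up to 0.18 on both plates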;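 note: plate controls were untreated cells for no effect and reference antibiotic for full effect; stock transfer was 100 nL into about 80 µL; one replicate is shown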
Mtb hypoxia inh growth = second read-out of Mtb hypoxia inh, no call of its own (marks repeat the call); growth inhibition, %; measured here: M. tuberculosis growth (absorbance);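 0% = vehicle and 100% = reference antibiotic; read after six days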
* marks the source's active call; other numbers are inactive results; ? = inconclusive; / = no result given.

smiles	Mtb hypoxia inh	Mtb hypoxia inh growth	Autofluor counter	PrP 5UTR inh	Sa ugtP lethal	BJeLR lethal	RN4220 kill
CCc1ccc(C(=O)COC(=O)c2n[nH]c3ccccc23)cc1	8	0	4733	-96	9	-6	-5.2
COc1cccc(NC(=O)CN(C)C(=O)c2csc3c2CCCC3)c1	11	11	3797	-19	4	/	6.2
Cc1ccc(S(=O)(=O)N2CCC(C(=O)N3Cc4ccccc4C3)CC2)cc1	/	/	4639	-4	2	-4	-3.1
CN(C)CCCN(C(=O)c1cc(-c2cccs2)nc2ccccc12)c1nc2c(F)cccc2s1	-5	11	?	-10	-24	-4	-5.5
CCCc1nc2oc(C(=O)OCC)c(N)c2c2c1COC(C)(C)C2	22	26	8882	-17	-1	-26	2.4
Cc1nnc(NC(=O)CSc2ncc(-c3ccccc3)[nH]2)s1	-9	8	3750	-3	5	-4	2.5
C=CCN1C=C2C(=O)C(C)(OC(=O)c3ccc(OC)cc3)C(=O)C(c3ccco3)=C2C=C1CCCC (configuration not stated)	10	6	2865	0	-11	2	2.4
CCC1C(=O)N(C)CCc2ccccc21 (configuration not stated)	11	8	7285	-14	7	-5	0.3
CN1NC(=O)CC1c1ccccc1 (configuration not stated)	9	4	4125	-22	9	/	4.8
CCc1ccc(N2CC(C(=O)Nc3cccc(S(=O)(=O)N4CCCC4)c3)CC2=O)cc1 (configuration not stated)	0	-5	/	-21	-3	-17	-0.6
Cc1ccc(C(=O)Nc2cc([N+](=O)[O-])ccc2C)cc1	8	14	2507	-10	2	-10	-3.7
C=CCn1c(SCC(=O)Nc2cccc(C(=O)OC)c2)nnc1C(C)NC(=O)c1cccs1 (configuration not stated)	9	6	15514	-5	13	-13	5.0
COC(=O)c1cccc(NC(=O)CCCOc2cccc(C)c2)c1	/	/	2727	-14	-2	6	-0.2
CSc1ccccc1NC(=O)Nc1ccc(F)c(Cl)c1	2	1	24571*	-18	-34	-3	-10
COc1cccc2c1OCC(CN1CCN(Cc3ccccc3)C(CCO)C1)=C2 (configuration not stated)	0	-1	3500	16	1	7	2.2
COCC(=O)N1CCC(Oc2ccc(C(=O)N(C)C3CCCCC3)cc2)CC1	-10	-6	4243	-16	-6	7	-2.4
CC(C)CN(C(=O)c1ccc(S(=O)(=O)N2CCCCC2)cc1)C1CCS(=O)(=O)C1 (configuration not stated)	6	-1	6275	-8	3	-2	3.0
CCn1cc(CNC(=O)c2cc(Cl)ccc2OC)c(C)n1	23	12	3463	-17	-2	-11	-13
Cc1ccc(CCNc2ccc3ccccc3c2)cn1	3	12	3344	-33	-10	0	-15
CCn1cc(C=NNC(=O)Cc2ccc(Cl)cc2)cn1	-3	2	/	/	6	/	-2.4
COC(=O)C1=C(C)N(Cc2ccccc2)C(=NCc2ccccc2)NC1c1cccc(F)c1 (configuration not stated)	-8	-2	/	/	-7	/	-3.0
COC(=O)C1=C(C)NC2=C(C(=O)CC(C)(C)C2)C1c1cccc(C)n1 (configuration not stated)	0	5	23176*	-14	-2	8	4.1
CC(C(=O)NCc1cccnc1)N1C(=O)c2ccccc2C1=O (configuration not stated)	/	/	6179	-24	-2	-2	3.9
CC(C)=CC(=O)O[C@@H]1Cc2c(ccc3ccc(=O)oc23)OC1(C)C	8	13	3711	-9	27	/	36
CC1CN(C(=O)CCC(=O)NCc2ccccc2)c2ccccc2S1 (configuration not stated)	12	6	5638	-30	-3	16	-14
O=C(Nc1ccc2oc(-c3ccc(F)cc3)nc2c1)c1ccccc1F	1	0	3279	-46	-10	0	5.9
NC(=Nc1nc2ccccc2o1)NC(=O)c1ccc([N+](=O)[O-])cc1	6	12	/	/	-12	/	2.9
Cc1c(NC(=O)Cn2[nH]c(=O)c3ccccc3c2=O)c(=O)n(-c2ccccc2)n1C	/	/	2474	-12	-3	-3	-0.7
CCOC(=O)c1c(NC(=O)CN2C(=O)NC3(CCCCC3)C2=O)sc(C)c1-c1ccc(C)cc1	5	10	2039	5	9	16	3.1
O=C(NCc1ccccc1)C1CCN(S(=O)(=O)c2cc([N+](=O)[O-])ccc2Cl)CC1	8	17	2486	-3	0	-4	2.5
O=C(COc1ccccc1)Nc1ccc2c(c1)Cc1cc(NC(=O)COc3ccccc3)ccc1-2	/	/	7844	-36	/	-1	/
Oc1ccccc1C=NC1=NN(c2cccc(C(F)(F)F)c2)CC1	1	15	9478	-13	-4	-11	9.6
COC(=O)CSc1nc2ccccc2o1	19	6	6628	-26	11	-13	6.7
O=C(COC(=O)c1ccc(Cl)c(S(=O)(=O)N2CCN(c3ccc(F)cc3)CC2)c1)Nc1cccc(Cl)c1	4	4	8632	-15	34	8	-9.2
Nc1cccc2c1C(=O)N(CCOc1ccccc1F)C2=O	16	0	5972	-29	5	-3	2.4
N#Cc1ccc(NC(=O)Nc2cccc(C#N)c2)cc1	/	/	4740	0	/	-4	/
Cc1[nH][nH]c(=O)c1C(c1ccc(-c2ccccc2C(=O)O)o1)c1c(C)[nH][nH]c1=O	1	16	2111	-34	2	3	-2.6
C=CCNC(=O)c1ccc(CN2CCC(Cc3ccccc3)CC2)cc1	5	-7	4193	-5	8	-3	1.4
COC(=O)c1ccc2c(=O)n(CCCCCC(=O)N3CCN(c4ccccc4)CC3)c(=O)[nH]c2c1	6	19	2890	-22	2	-3	4.0
Cc1nnc(SCC(=O)Nc2ccc(S(N)(=O)=O)cc2)n(N)c1=O	13	8	2970	-1	4	/	4.9
COc1ccc2c(c1)c(=O)c(C(=O)c1ccc(C)cc1)cn2CC(=O)Nc1ccc(F)cc1	-3	3	4483	-8	3	-14	1.0
Cc1nc2scc(C)n2c(=O)c1S(=O)(=O)NCCc1ccccc1	-1	1	?	-16	5	-5	3.8
Cc1ccc(S(=O)(=O)Nc2ccc(=O)n(Cc3ccc(Cl)c(Cl)c3)c2)cc1	6	12	4189	-13	-14	0	18
COc1ccc(CCn2c(-c3ccco3)nc3nc4ccccc4nc32)cc1	9	11	5511	-21	-6	4	6.1
O=C(O)c1ccc(NC2=Nc3cccc4cccc2c34)cc1	4	2	4314	-34	-5	3	2.2
C=CCn1c(NCc2ccc(N(C)C)cc2)nc2ccccc21	/	/	3615	-14	6	-13	-5.1
O=C(CCSc1ccccc1)Nc1ccccc1C(=O)N1CCCC1	8	6	2055	-21	-6	8	3.4
O=C(COC(=O)Cn1cnc2ccccc21)Nc1cc2c(cc1Cl)C(=O)c1ccccc1C2=O	-11	-6	4737	-84	13	-2	25
O=C(CCOc1ccccc1)Nc1ccc(S(=O)(=O)N2CCCC2)cc1	/	/	3724	-1	13	-8	3.6
COCC1CCN(C(=O)c2cc(COc3cc(C)c(Cl)c(C)c3)on2)C1 (configuration not stated)	15	7	5149	-55	-8	3	4.1
O=S(=O)(Nc1ccc(-c2ccc3nncn3n2)cc1)c1cccs1	6	-1	6210	-13	4	7	2.4
Nc1nc(NCC(=O)O)nc(NCc2ccccc2)c1[N+](=O)[O-]	-5	-1	3778	-13	-1	-10	4.3
NS(=O)(=O)c1ccc(CCNS(=O)(=O)c2cccc3cccnc23)cc1	-1	6	3903	-13	-1	3	4.4
CCOc1ccc(NC(=O)/C(=C\c2ccc(OC(C)=O)c(OC)c2)NC(C)=O)cc1	8	13	2870	-23	9	-5	1.1
Cc1ccc(C(CC(=O)O)NC(=O)c2ccc(S(=O)(=O)N3CC(C)OC(C)C3)cc2)cc1 (configuration not stated)	0	6	8113	-5	-2	/	-0.6
C/C=C1\NC(=O)[C@H](C)NC(=O)[C@@H](NC(=O)[C@@H](Cc2ccc(O)cc2)NC(=O)[C@@H](NC(=O)/C(C)=C/C)C(C)C)[C@@H](C)OC(=O)[C@H](CCCCc2ccc(O)cc2)NC(=O)[C@@H](CCC(=O)O)NC1=O	0	8	3657	-29	3	/	4.2
CC1CCC2(CC1)NC(=O)N(NC(=O)C1CCN(C(=O)c3ccc(Cl)cc3)CC1)C2=O (configuration not stated)	1	-1	5069	-30	7	/	2.2
COC(=O)Cn1c(=N)n(CCN2CCCCC2)c2ccccc21	/	/	2897	-41	-4	0	2.5
O=C(Nc1ccn(CC(=O)N2CCN(c3ccccn3)CC2)c(=O)n1)OCc1ccccc1	0	3	3819	-17	2	/	3.7
Cc1cc(C)cc(NC(=O)CSc2nc(N)c(NC(=O)c3ccc(Br)o3)c(=O)[nH]2)c1	2	8	5083	-18	-3	2	9.7

(next part)
smiles	Mtb hypoxia inh	Mtb hypoxia inh growth	Autofluor counter	PrP 5UTR inh	Sa ugtP lethal	BJeLR lethal	RN4220 kill
O=C(CCN=C1NS(=O)(=O)c2ccccc21)OCC(=O)c1ccccc1Cl	-1	-6	?	-20	11	-7	5.8
C#CCOCCOCCOCCNc1nc(N2CCOCC2)nc(N2CCN(C(=O)CCCCCCCCCCNC(=O)C(C(C)CC)n3cc(CCCCCN)nn3)CC2)n1 (configuration not stated)	18	21	/	/	-23	/	2.3
O=P1(Oc2ccccc2)CC=C[C@H](COCc2ccccc2)O1 (some centres not stated)	/	/	3663	-7	/	6	/
Cc1ccc(OCCCC(=O)Nc2ccccc2C(F)(F)F)cc1	/	/	5089	-8	7	-5	3.3
Cc1ccc(NC(=O)c2cnn(C)c2)cc1[N+](=O)[O-]	2	10	2493	-50	1	6	-0.2
CC(=NNC(=O)c1ccccc1F)c1ccc2c(c1)Nc1ccccc1S2	2	8	/	/	-17	/	11
CCCC(=O)O[C@H]1C[C@@H](C)N(C(=O)c2ccccc2)c2ccc(C)cc21	/	/	2101	-22	12	-7	3.9
CC(CCc1ccco1)NC(=O)CCc1nnc2ccc(NCc3ccccc3Cl)nn12 (configuration not stated)	3	14	5215	-8	3	-3	-0.4
CCc1ccc(C2CC(=O)N(c3ccc(F)cc3)C3=C2C(=O)OC3)cc1 (configuration not stated)	12	12	2455	-4	13	-2	-2.0
O=C(Nc1nc2n(n1)C(c1ccc(F)cc1)CC(c1ccccc1)N2)c1ccco1 (configuration not stated)	7	13	5382	-19	3	2	2.6
COc1ccc(-n2c(=O)c3c4c(sc3n(Cc3cccc(F)c3)c2=O)CN(C(C)=O)CC4)c(OC)c1	8	1	/	/	-2	7	2.3
COc1ccccc1-c1cnnc(NN=Cc2ccc(-c3cccc(Br)c3)o2)n1	0	5	/	/	-25	/	-2.3
COc1ccc2[nH]cc(CCNS(=O)(=O)c3ccc(NC(C)=O)cc3)c2c1	7	-3	4872	-22	2	11	5.5
CCN1CCN(C(=O)/C=C/c2ccccc2[N+](=O)[O-])CC1	/	/	2439	-11	/	9	/
Cc1ccccc1N(CC(=O)NC1CCCC1)C(=O)c1oc(C(C)(C)C)cc1C	3	13	12417	-20	-16	4	-22

Whole records, quoted from the list:
`C#CCOCCOCCOCCNc1nc(N2CCOCC2)nc(N2CCN(C(=O)CCCCCCCCCCNC(=O)C(C(C)CC)n3cc(CCCCCN)nn3)CC2)n1` (configuration not stated) across the screens: Mtb hypoxia inh: 18; Mtb hypoxia inh growth: 21; Autofluor counter: /; PrP 5UTR inh: /; Sa ugtP lethal: -23; BJeLR lethal: /; RN4220 kill: 2.3
`CC(=NNC(=O)c1ccccc1F)c1ccc2c(c1)Nc1ccccc1S2` across the screens: Mtb hypoxia inh: 2; Mtb hypoxia inh growth: 8; Autofluor counter: /; PrP 5UTR inh: /; Sa ugtP lethal: -17; BJeLR lethal: /; RN4220 kill: 11

Sorted by molecular weight (rising): part of the list above.
smiles	Mtb hypoxia inh	Mtb hypoxia inh growth	Autofluor counter	PrP 5UTR inh	Sa ugtP lethal	BJeLR lethal	RN4220 kill
CCN1CCN(C(=O)/C=C/c2ccccc2[N+](=O)[O-])CC1	/	/	2439	-11	/	9	/
COc1ccc2[nH]cc(CCNS(=O)(=O)c3ccc(NC(C)=O)cc3)c2c1	7	-3	4872	-22	2	11	5.5
C#CCOCCOCCOCCNc1nc(N2CCOCC2)nc(N2CCN(C(=O)CCCCCCCCCCNC(=O)C(C(C)CC)n3cc(CCCCCN)nn3)CC2)n1 (configuration not stated)	18	21	/	/	-23	/	2.3

Next section
smiles	Mtb hypoxia inh	Mtb hypoxia inh growth	Autofluor counter	PrP 5UTR inh	Sa ugtP lethal	BJeLR lethal	RN4220 kill
Cc1sc2nc(CN3CCOCC3)nc(NS(=O)(=O)c3ccc4c(c3)OCCO4)c2c1C	10	18	4391	-21	3	3	2.9
CCCCC[C@@H](/C=C/C1C(=O)C=C[C@H]1C/C=C\CCCC(=O)O)OC(C)=O (some centres not stated)	-3	2	3530	-27	0	/	4.8
O=C(CSc1nnc(-c2ccccc2)o1)Nc1ccccc1F	/	/	6196	60*	5	46	5.0
O=C(Cc1ccc(F)cc1)N1CCC(CC2CC(c3ccc(Cl)cc3)=NO2)(C(=O)NCC2CCCCC2)CC1 (configuration not stated)	/	/	4048	9	/	-11	/
